Source: PubChem BioAssay (Broad Institute)
UUG fidelity: alters start codon recognition fidelity in yeast; S. cerevisiae UUG-firefly luciferase reporter, luminescence/redox ratio; activity score, % at 18.7 µM; actives 0.13% (n = 350,000);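 active = replicate mean at a twofold rise or more, about +100% in these data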;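 also: firefly luciferase made from a UUG start codon reports start codon fidelity; reporter light over untreated wells divided by growth signal over untreated wells; some hits fall short of that in this replicate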
HIV Env fusion: inhibitors of HIV Env-mediated cell fusion; inhibition, % at 12.3 µM; HeLa-JRFL Env/CEM21 cell fusion, luciferase; actives 1.1% (n = 360,000); AID 651610;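 active = mean replicate inhibition score of at least 50 and every replicate individually at or above 50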;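 also: 0% = plate neutral controls and 100% = maraviroc near 300 nM; one replicate is shown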
* = called active by the depositor; [ ] = another dose, or the depositor's remark. A portion of the library (hit frequency here may not be typical).

Sequence of screens: UUG fidelity, HIV Env fusion
- COc1ccc(-c2cnc3c(c2)C(=O)N([C@@H](C)CO)C[C@H](C)[C@@H](CN(C)C(=O)C2CCOCC2)O3)cc1
  11.4, -6.8[16.7 µM]
- COc1ccc(CNC(=O)C[C@@H]2C[C@@H]3c4cc(NC(=O)CN(C)C)ccc4O[C@@H]3[C@@H](CO)O2)cc1
  -5.1, -0.8[16.7 µM]
- O=C(N[C@@H]1CC[C@@H](CCn2cc(C3(O)CCCC3)nn2)O[C@@H]1CO)C1CCOCC1
  -0.1, -12.7[16.7 µM]
- COc1ccc(C(=O)NCC2CCCN2S(=O)(=O)c2ccccc2)cc1OC (stereo not given)
  -19.0, -2.3
- CN(C)CC(=O)N1[C@H](C#N)[C@H](c2ccc(-c3ccccc3F)cc2)[C@H]1CO
  5.2, -7.7[16.7 µM]
- COc1ccc(NC(=O)N(C)C[C@H]2Oc3c(NC(=O)c4nc5ccccc5s4)cccc3C(=O)N([C@H](C)CO)C[C@@H]2C)cc1
  5.7, 8.6[16.7 µM]
- C[C@H](CO)N1C[C@H](C)[C@@H](CN(C)Cc2ccc(C(F)(F)F)cc2)Oc2ccc(NC(=O)c3ccncc3)cc2C1=O
  -0.5, 9.9[16.7 µM]
- Cc1noc(C)c1NC(=O)N(C)C[C@H]1Oc2c(NS(=O)(=O)c3ccccc3)cccc2C(=O)N([C@@H](C)CO)C[C@H]1C
  3.4, 23.0[16.7 µM]
- O=C(C[C@@H]1CC[C@@H](NC(=O)C2CCC2)[C@H](CO)O1)NCCCN1CCOCC1
  -7.9, 18.6[16.7 µM]
- COc1ccc(NC(=O)Nc2ccc3c(c2)C(=O)N([C@@H](C)CO)C[C@H](C)[C@@H](CN(C)S(=O)(=O)c2ccc(Cl)cc2)O3)cc1
  0.7, 7.9[16.7 µM]

Three entries already listed, ordered by the value under UUG fidelity, low to high.
| compound | UUG fidelity |
| --- | --- |
| O=C(C[C@@H]1CC[C@@H](NC(=O)C2CCC2)[C@H](CO)O1)NCCCN1CCOCC1 | -7.9 |
| COc1ccc(NC(=O)Nc2ccc3c(c2)C(=O)N([C@@H](C)CO)C[C@H](C)[C@@H](CN(C)S(=O)(=O)c2ccc(Cl)cc2)O3)cc1 | 0.7 |
| Cc1noc(C)c1NC(=O)N(C)C[C@H]1Oc2c(NS(=O)(=O)c3ccccc3)cccc2C(=O)N([C@@H](C)CO)C[C@H]1C | 3.4 |

(list continues)
Sequence of screens: UUG fidelity, HIV Env fusion
- CN(C)C(=O)C[C@H]1C[C@@H]2c3cc(NC(=O)Nc4ccccc4F)ccc3O[C@@H]2[C@H](CO)O1
  -23.4, 4.5[16.7 µM]
- C[C@H](CO)N1C[C@H](C)[C@H](CN(C)Cc2ccccc2)Oc2ccc(NC(=O)Nc3ccc(C(F)(F)F)cc3)cc2CC1=O
  7.2, 19.7[16.7 µM]
- C[C@H]1CN([C@@H](C)CO)C(=O)c2cccc(NS(=O)(=O)c3cn(C)cn3)c2O[C@H]1CN(C)S(=O)(=O)c1ccccc1
  -6.9, 2.2[16.7 µM]
- Cc1ccc(S(=O)(=O)N(C)C[C@H]2Oc3ccc(NS(=O)(=O)c4ccc(F)cc4)cc3CC(=O)N([C@H](C)CO)C[C@H]2C)cc1
  5.9, -6.2[16.7 µM]
- CNC[C@H]1Oc2c(NC(=O)c3ccncc3)cccc2C(=O)N([C@@H](C)CO)C[C@H]1C
  18.4, 21.5[16.7 µM]
- Cc1noc(C)c1S(=O)(=O)Nc1ccc2c(c1)C(=O)N([C@@H](C)CO)C[C@@H](C)[C@@H](CN(C)S(=O)(=O)c1cccs1)O2
  4.3, -20.0[16.7 µM]
- O=C(N[C@@H]1CC[C@H](CCNC(=O)c2ccccc2F)O[C@@H]1CO)c1ccc2c(c1)OCO2
  -5.4, -17.5[16.7 µM]
- C[C@@H](O)C#Cc1cnc2c(c1)C(=O)N([C@@H](C)CO)C[C@H](C)[C@@H](CN(C)CC1CCCCC1)O2
  16.2, -2.2[16.7 µM]
- C[C@@H](O)C#Cc1cnc2c(c1)C(=O)N([C@@H](C)CO)C[C@H](C)[C@@H](CN(C)CC1CCCC1)O2
  -4.5, 18.9[16.7 µM]
- C[C@H](CO)N1C[C@H](C)[C@H](CN(C)C(=O)Nc2ccc(C(F)(F)F)cc2)Oc2cc(-c3ccncc3)ccc2S1(=O)=O
  -15.5, 7.6[16.7 µM]
- C[C@H]1CCCCO[C@H](CN(C)Cc2ccc(Cl)c(Cl)c2)[C@@H](C)CN([C@@H](C)CO)C(=O)c2cc(NC(=O)Nc3cccc4ccccc34)ccc2O1
  -27.2, 15.7[16.7 µM]
- COc1ccc(S(=O)(=O)Nc2ccc3c(c2)C(=O)N([C@@H](C)CO)C[C@H](C)[C@H](CN(C)C(=O)CCC(F)(F)F)OCCCC[C@H](C)O3)cc1
  25.1, -4.0[16.7 µM]
- Cc1ccccc1S(=O)(=O)N[C@@H]1CC[C@H](CCn2cc(Cc3ccccc3)nn2)O[C@@H]1CO
  -7.4, 21.3[16.7 µM]
- C[C@H](CO)N1C[C@H](C)[C@H](CN(C)Cc2ccccc2)Oc2ccc(NC(=O)CCC(F)(F)F)cc2C1=O
  -4.5, -6.6[16.7 µM]
- COC(=O)C[C@H]1C=C[C@H](NS(=O)(=O)c2ccccc2F)[C@H](CO)O1
  -10.5, -9.9[16.7 µM]
- CN1CCN(C(=O)C[C@@H]2CC[C@H]3[C@@H](COC[C@H](O)CN3C(=O)C3CCOCC3)O2)CC1
  -6.8, -18.1[16.7 µM]
- CC(C)c1cn(CC[C@H]2CC[C@H](NS(=O)(=O)Cc3ccccc3)[C@@H](CO)O2)nn1
  -1.2, 9.3[16.7 µM]
- CC(C)NC(=O)N(C)C[C@H]1OCCCC[C@@H](C)Oc2ccc(NS(C)(=O)=O)cc2C(=O)N([C@H](C)CO)C[C@@H]1C
  -4.4, 3.8[16.7 µM]
- C[C@@H](O)C#Cc1cnc2c(c1)C(=O)N([C@@H](C)CO)C[C@H](C)[C@@H](CN(C)C(=O)c1ccccc1F)O2
  -1.6, -11.6[16.7 µM]
- C[C@@H]1CCCCO[C@@H](CN(C)S(C)(=O)=O)[C@@H](C)CN([C@H](C)CO)C(=O)c2cc(NC(=O)NC3CCCCC3)ccc2O1
  -8.4, -11.0[16.7 µM]
- C[C@@H]1CN([C@@H](C)CO)S(=O)(=O)c2ccc(C3=CCCC3)cc2O[C@H]1CN(C)C(=O)c1cnccn1
  -6.3, 11.0[16.7 µM]
- CCC(=O)Nc1ccc2c(c1)C(=O)N(C)[C@H]1CC[C@H](CC(=O)NC3Cc4ccccc4C3)O[C@H]1CO2
  2.1, 10.5[16.7 µM]
- CC(C)NC(=O)N1[C@H](CO)[C@H](c2ccc(C#CC3CCCC3)cc2)[C@@H]1C#N
  0.6, 9.0[16.7 µM]
- C[C@@H]1CN([C@@H](C)CO)C(=O)c2cc(C#C[C@@H](C)O)cnc2O[C@@H]1CN(C)C(=O)CN(C)C
  11.8, 11.3[16.7 µM]
- O=C(C[C@H]1C=C[C@@H](NC(=O)c2ccccc2)[C@H](CO)O1)NCc1ccncn1
  4.8, -0.6[16.7 µM]
- C[C@H](CO)N1C[C@H](C)[C@H](CN(C)C(=O)C2CCCCC2)Oc2ncc(C#CC3(O)CCCC3)cc2C1=O
  14.4, 15.4[16.7 µM]
- C[C@H](CO)N1C[C@H](C)[C@@H](CN(C)C(=O)C2CCC2)Oc2ncc(-c3cccc(F)c3)cc2C1=O
  10.7, 2.7[16.7 µM]
- C[C@H](CO)N1C[C@H](C)[C@@H](CN(C)C(=O)c2ccncc2)Oc2cc(C#CC3(O)CCCC3)ccc2S1(=O)=O
  -6.4, -14.1[16.7 µM]
- COc1ccc(NC(=O)N[C@@H]2CC[C@@H](CCn3cc(-c4ccccn4)nn3)O[C@H]2CO)cc1
  -18.8, -5.0[16.7 µM]
- COc1ccc(CN(C)C[C@@H]2Oc3ccc(NC(=O)Nc4cccc5ccccc45)cc3CC(=O)N([C@H](C)CO)C[C@@H]2C)cc1
  -5.5, -6.5[16.7 µM]
- CCCNC(=O)C[C@H]1CC[C@@H]2[C@@H](COc3ccc(NC(=O)Nc4ccccc4)cc3C(=O)N2C)O1
  10.6, 9.5[16.7 µM]
- CC(C)CC#Cc1ccc2c(c1)O[C@H](CN(C)C(=O)CN(C)C)[C@H](C)CN([C@H](C)CO)S2(=O)=O
  20.2, 2.9[16.7 µM]
- C[C@@H]1CCCCO[C@@H](CN(C)C(=O)Nc2cccc3ccccc23)[C@H](C)CN([C@H](C)CO)C(=O)c2cc(NS(=O)(=O)c3ccc(Cl)cc3)ccc2O1
  -8.9, 20.2[16.7 µM]
- C[C@@H]1CCCCO[C@@H](CN(C)C(=O)Cc2ccccc2)[C@@H](C)CN([C@@H](C)CO)C(=O)c2cc(NC(=O)Cc3ccccc3)ccc2O1
  19.6, -2.9[16.7 µM]
- COc1ccc(CN(C)C[C@@H]2OCCCC[C@@H](C)Oc3ccc(NS(=O)(=O)c4cccs4)cc3C(=O)N([C@H](C)CO)C[C@H]2C)cc1
  -1.1, -6.5[16.7 µM]
- CCCN(C)C[C@@H]1Oc2cc(C#CC3(O)CCCC3)ccc2S(=O)(=O)N([C@@H](C)CO)C[C@@H]1C
  0.5, -30.4[16.7 µM]
- O=C(N[C@H]1CC[C@@H](CCNS(=O)(=O)c2ccc(F)cc2)O[C@H]1CO)c1ccccn1
  -3.2, -0.6[16.7 µM]
- N#C[C@@H]1[C@@H](c2ccc(-c3ccccc3F)cc2)[C@H](CO)N1C(=O)c1ccccn1
  -8.0, 13.9[16.7 µM]
- Cc1noc(C)c1NC(=O)N(C)C[C@@H]1Oc2cc(C#CCC(C)C)ccc2S(=O)(=O)N([C@H](C)CO)C[C@H]1C
  11.6, -61.0[16.7 µM]
- C[C@H](CO)N1C[C@H](C)[C@H](CN(C)S(=O)(=O)c2cccs2)Oc2ccc(NC(=O)CCN3CCOCC3)cc2CC1=O
  14.9, 55.5*[16.7 µM]
- C[C@@H]1CN([C@@H](C)CO)C(=O)c2cc(NC(=O)Nc3ccc(C(F)(F)F)cc3)ccc2O[C@@H](C)CCCCO[C@H]1CN(C)Cc1ccccc1
  13.1, 16.5[16.7 µM]
- C[C@@H]1CCCCO[C@@H](CN(C)C(=O)Nc2cccc3ccccc23)[C@@H](C)CN([C@@H](C)CO)C(=O)c2cc(NS(=O)(=O)c3ccc(Cl)cc3)ccc2O1
  -8.4, -14.3[16.7 µM]
- C[C@@H]1CN([C@@H](C)CO)S(=O)(=O)c2ccc(C#CCN(C)C)cc2O[C@H]1CN(C)C(=O)Nc1ccccc1F
  10.6, -26.8[16.7 µM]
- COc1ccc(S(=O)(=O)N(C)C[C@@H]2OCCCC[C@H](C)Oc3ccc(NC(=O)c4ccncc4)cc3C(=O)N([C@H](C)CO)C[C@H]2C)cc1
  20.1, 5.8[16.7 µM]
- CCCNC(=O)N(C)C[C@H]1Oc2ncc(C#Cc3ccccc3F)cc2C(=O)N([C@H](C)CO)C[C@@H]1C
  0.6, 6.7[16.7 µM]
- C[C@@H]1CN([C@@H](C)CO)C(=O)c2cc(NS(=O)(=O)c3ccc(F)cc3)ccc2O[C@H]1CN(C)S(=O)(=O)c1ccc(Cl)cc1
  14.8, -25.1[16.7 µM]
- CC(C)C#Cc1ccc2c(c1)O[C@@H](CN(C)C(=O)CC1CC1)[C@H](C)CN([C@@H](C)CO)S2(=O)=O
  -5.7, -16.2[16.7 µM]
- CCCC(=O)Nc1ccc2c(c1)C(=O)N(C)[C@@H]1CC[C@H](CC(=O)NCCOC)O[C@@H]1CO2
  1.0, 13.1[16.7 µM]
- CN(C)CC(=O)N[C@H]1C=C[C@@H](CC(=O)NCCN2CCCCC2)O[C@H]1CO
  5.5, -1.8[16.7 µM]
- O=C(Cc1ccncc1)NCC[C@@H]1CC[C@@H](NC(=O)C2CC2)[C@H](CO)O1
  -0.8, -5.9[16.7 µM]

Additional compounds follow:
Sequence of screens: UUG fidelity, HIV Env fusion
- COc1cccc(C(=O)Nc2ccc3c(c2)C(=O)N(C)[C@@H]2CC[C@@H](CC(=O)NCC4CC4)O[C@H]2CO3)c1
  7.1, -6.3[16.7 µM]
- C[C@H]1CN([C@@H](C)CO)C(=O)Cc2cc(NC(=O)CCC(F)(F)F)ccc2O[C@H]1CN(C)Cc1ccccc1
  6.6, -13.3[16.7 µM]
- CC(=O)N(C)C[C@@H]1Oc2cc(-c3ccc(F)cc3)ccc2S(=O)(=O)N([C@@H](C)CO)C[C@@H]1C
  5.8, -10.8[16.7 µM]
- CCCN(C)C[C@@H]1Oc2cc(C#Cc3ccc(F)cc3)ccc2S(=O)(=O)N([C@H](C)CO)C[C@@H]1C
  1.0, -4.7[16.7 µM]
- O=C(Nc1ccc(F)cc1)Nc1ccc2c(c1)[C@H]1C[C@H](CC(=O)N3CCCCC3)O[C@@H](CO)[C@H]1O2
  7.2, -10.6[16.7 µM]
- C[C@@H]1CN([C@H](C)CO)C(=O)c2cc(NC(=O)CCC(F)(F)F)ccc2O[C@@H](C)CCCCO[C@@H]1CN(C)Cc1ccc2c(c1)OCO2
  -7.0, -0.8[16.7 µM]
- C[C@@H]1CN([C@@H](C)CO)S(=O)(=O)c2ccc(-c3cccc(F)c3)cc2O[C@H]1CN(C)C
  6.1, 26.0[16.7 µM]
- C[C@@H]1CCCCO[C@@H](CN(C)S(=O)(=O)c2ccc(Cl)cc2)[C@@H](C)CN([C@H](C)CO)C(=O)c2cc(NC(=O)CCC(F)(F)F)ccc2O1
  -1.1, 1.2[16.7 µM]
- Cc1noc(C)c1S(=O)(=O)Nc1cccc2c1O[C@@H](CN(C)C(=O)Nc1ccccc1)[C@@H](C)CN([C@@H](C)CO)C2=O
  0.0, -23.5[16.7 µM]
- CN(C)CC(=O)N[C@H]1CC[C@@H](CCNS(=O)(=O)c2ccccc2)O[C@@H]1CO
  -7.1, -6.1[16.7 µM]
- C[C@@H]1CN([C@H](C)CO)C(=O)Cc2cc(NS(=O)(=O)c3ccc(F)cc3)ccc2O[C@@H]1CN(C)Cc1ccc2c(c1)OCO2
  -0.5, -8.3[16.7 µM]
